# Assay outcomes (PubChem BioAssay)
# Calb biofilm kill: mixture kills Candida albicans biofilm cells; C. albicans biofilm persisters + clotrimazole, fluorescence viability; primary screen in compound mixtures of four per well; inhibition, % at 7.6 µM; 0.02% of 120,000 active;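 active = inhibition above 30.3% in the primary screen of four-compound pools, then above 30% when the compound was retested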;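 note: compounds exposed to preformed 24 h biofilms for 48 h; the number belongs to the whole pool; some results filed as inactive read as strong as hits; inactives centre near 12; 0% = biofilm with clotrimazole alone and 100% = kill control; retested singly at about 60 µM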
#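 Test system: C. albicans CAF4-2 wild-type biofilms; buffer or medium: RPMI/MOPS medium, pH 7.0; schedule: 24 h biofilm formation, then 48 h compound exposure, 37 °C; detection: Alamar Blue fluorescence; measure: percent inhibition of biofilm viability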
# The depositor's hits bear a star.
smiles	Calb biofilm kill
CC(C(=O)Nc1cccc([N+](=O)[O-])c1)N(c1ccccc1)S(C)(=O)=O (stereo not drawn)	15.1
Cc1cc2ccccc2n2c(SCC(=O)N3CCc4ccccc4C3)nnc12	-2.1
CCCCC(=O)N(Cc1ccc(F)cc1)C1CCS(=O)(=O)C1 (stereo not drawn)	17.9
COc1ccccc1C(=O)OCC(=O)Nc1cc(S(=O)(=O)N2CCOCC2)ccc1N1CCCC1	11.1
COc1ccc(-c2csc(NC3OC(=O)c4ccccc43)n2)cc1 (stereo not drawn)	34.0
CNC(=S)Nc1ccc2[nH]c(=O)[nH]c2c1	29.0
CCOC(=O)c1cnc2ccc(OCC)cc2c1N(C)Cc1ccccc1	2.9
Cc1cccc(C(=O)NC2=NCCS2)c1	21.2
COc1ccc(-c2[nH]c(-c3ccccc3)nc2SCC(=O)Nc2nccs2)cc1	7.1
COc1ccc(C(C)(C)C)cc1S(=O)(=O)n1ccnc1C	10.1
COc1cccc(CNC(C)(C)CO)c1OCc1ccc(Cl)cc1	13.1
COc1ccc(C(=O)C2CCCN(Cc3c[nH]c4ccccc34)C2)c(OC)c1 (stereo not drawn)	15.8
CCCC(C)NC(=O)Cc1ccc(Br)cc1 (stereo not drawn)	16.4
COC(=O)c1c(NC(=O)CN2C(=O)NC3(CCc4ccccc4C3)C2=O)sc2c1CCCCC2 (stereo not drawn)	13.8
N=C1/C(=C\c2coc3ccccc3c2=O)C(=O)N=C2SC=CN12	21.7
CC(C)c1ccc(NS(=O)(=O)c2ccc(Cl)nc2)cc1	16.8
O=C1CSC(c2ccc(Cl)cc2)N1Nc1nc(N2CCOCC2)nc(N2CCOCC2)n1 (stereo not drawn)	10.2
CCOc1ccc(CCNC(=O)c2ccc(CNS(=O)(=O)c3ccccc3)cc2)cc1OCC	14.8
CC(C)(C)c1ccc(C(=O)OCC(=O)Nc2sc3c(c2C#N)CCC3)cc1	21.5
CN(C)C(=O)CSc1nc2ccc(N3C(=O)c4ccccc4C3=O)cc2s1	17.4
CN(C)S(=O)(=O)c1ccc(C(=O)NCC(=O)N/N=C/c2cccs2)cc1	30.3
C[C@@]12CCC=C[C@H]1[C@H](c1ccc(/C=C/c3ccccc3)cc1F)N(Cc1ccccc1)C2=O	13.2
O=C(CO/N=C/c1ccc(OC(F)F)cc1)NCc1cccs1	11.3
CN(C)S(=O)(=O)c1ccc(Cl)c(C(=O)Nc2cccc([N+](=O)[O-])c2)c1	13.0
CCOC(=O)c1ccc(NC(=O)c2nc[nH]c2C(=O)N[C@@H](C)C(=O)OC(C)(C)C)cc1	8.3
CC1(C)SC(=Nc2ccccc2)N(S(=O)(=O)c2ccccc2)C1=O	16.6
O=C1OCCC1Sc1nc2ccccc2c(=O)n1Cc1ccccc1 (stereo not drawn)	7.7
CC/C(O)=C1\C(=O)CC(C)(C)CC1=NCCc1nc2ccccc2[nH]1	21.9
CC(=O)Nc1ccc(NC(=O)CSc2nnc(C)c(=O)n2N)cc1	19.8
CC(C)NC(=S)N/N=C/C1=CCC2CC1C2(C)C (stereo not drawn)	9.5
CCOC(=O)/C(=C/c1ccc(F)cc1)NC(C)=O	23.1
CCn1c(Cc2c(C)[nH]c3ccccc23)nnc1SCC(=O)NCc1ccco1	6.5
Cc1nn(-c2ccccc2)c(N)c1C1(O)C(=O)Nc2ccccc21 (stereo not drawn)	15.3
COc1cc([N+](=O)[O-])ccc1NC(=O)CSc1nc2ccccc2n1-c1ccccc1	18.5
COc1ccc(CCNC(=O)COc2ccc(C)nc2[N+](=O)[O-])cc1	16.3
CC(C)CN(Cc1c(O)ccc2ccccc12)CC(C)C	12.2
O=C(CSCc1ccccc1Br)N/N=C/c1ccc2c(c1)OCO2	9.2
CCN(Cc1ccccc1)C(=O)CN1C(=S)NC(C)(C)CC1C (stereo not drawn)	15.6
C/C(=C\c1ccc(C)o1)C(=O)c1c(C)cc(C)[nH]c1=O	-1.7
CCOCC(=O)Nc1cc(C(=O)Nc2ccc(F)cc2)ccc1Cl	29.7
CCC(=O)N(Cc1ccco1)c1nc(-c2ccc(OC)cc2)cs1	13.6
COc1cc(O)c2c(=O)cc(-c3ccccc3)oc2c1	17.9
CCn1cc(CNC(=S)Nc2cccc(Cl)c2C)cn1	16.3
Cn1cccc1-c1nc2ccccc2[nH]1	10.3
Nc1scn[n+]1Cc1cccc2cccnc12	-0.5
Cc1cc(C)c(NC(=S)NC(=O)c2ccc(-c3ccccc3)cc2)c(C)c1	12.4
COc1cc(/C=N/NC(=O)c2ccc([N+](=O)[O-])cc2Cl)cc(Br)c1O	8.5
Oc1ccc(N=C/C=C/c2ccc(Br)cc2)cc1-c1nc2ccccc2s1	22.6
CSc1ccccc1C(=O)NCc1ccc(C)cc1	8.3
COc1ccccc1CN1CCCCC1C(=O)O (stereo not drawn)	9.2
COc1ccc(NC(=O)C2=NN(C3CCS(=O)(=O)C3)C(=O)CC2)cn1 (stereo not drawn)	13.7
N#CCCn1cc(C(=O)Nc2ccccc2Br)c(-c2cc3ccccc3o2)n1	11.1
CN(C)CC#CCC(O)(c1ccccc1)c1ccccc1	21.2
COc1cc(/C=N/Nc2nc(N3CCCC3)nc(N3CCCC3)n2)ccc1OCc1ccccc1F	-1.6
COC(=O)c1cncc(C)c1	24.4
O=C(Cn1cnc2cc([N+](=O)[O-])ccc2c1=O)Nc1cccc2ccccc12	-7.4
CC1(C)CC(=O)C(C=NCCN2CCN(C(=S)NC3CCCCC3)CC2)=C(O)C1	-0.3
CCOC(=O)N1CCN(C(=O)CSc2ccc(-c3ccncc3)nn2)CC1	16.7
Cc1c([N+](=O)[O-])c(N)nn1C	11.8
O=C(NCc1ccc(F)cc1)C1CCN(c2cnccn2)CC1	21.1

# Entries shown so far that contain a tert-butyl group (three):
smiles	Calb biofilm kill
COc1ccc(C(C)(C)C)cc1S(=O)(=O)n1ccnc1C	10.1
CC(C)(C)c1ccc(C(=O)OCC(=O)Nc2sc3c(c2C#N)CCC3)cc1	21.5
CCOC(=O)c1ccc(NC(=O)c2nc[nH]c2C(=O)N[C@@H](C)C(=O)OC(C)(C)C)cc1	8.3

# (continued)
smiles	Calb biofilm kill
CC(=O)Nc1cccc(NC(=O)Nc2ccc(C)c(Cl)c2)c1	6.5
Cc1ccccc1NC(=O)CNc1ccc(Cl)c(C(F)(F)F)c1	16.6
CCOc1ccc2nc(Nc3nc4ccc(NC(C)=O)cc4s3)sc2c1	15.4
CCOC(=O)C1(CC2CCCCO2)CCN(C(=O)Nc2ccccc2CC)CC1 (stereo not drawn)	14.6
CCCCN1C(=O)c2ccc(C(=O)Nc3ccc(S(=O)(=O)N(C)C)cc3)cc2C1=O	18.4
Cc1cccc2cc(CN(CCN(C)C)C(=S)NCc3ccco3)c(=O)[nH]c12	7.6
COc1ccc(C2CC2/C(C)=N/OC(=O)c2ccc(F)cc2)cc1 (stereo not drawn)	6.7
CCC(C)OC(=O)c1cc(C)nc2c(Br)cc(Br)cc12 (stereo not drawn)	13.2
COc1cc(/C=N/n2c(C)n[nH]c2=S)ccc1OCc1ccccc1	13.6
C=CCOC(=O)C1=C(C)N=c2s/c(=C3\C(=O)N(CC(=O)O)c4ccccc43)c(=O)n2C1c1ccc(OC)cc1 (stereo not drawn)	4.7
COc1cc2c(cc1NC(=O)COC(=O)[C@@H](NC(=O)c1ccccc1F)C(C)C)oc1ccccc12	7.2
CNS(=O)(=O)c1cccc(C(=O)OCC(=O)Nc2ccc(OC)cc2[N+](=O)[O-])c1	18.9
Cc1cccc(/C=N/NC(=O)CN2CCCCCCC2)c1	5.9
NC(=O)c1c(NC(=O)C2c3ccccc3Oc3ccccc32)sc2c1CCCCC2	13.7
N#Cc1ccsc1NC(=O)CN1CCN(S(=O)(=O)c2ccccc2C(F)(F)F)CC1	16.8
Cc1cccc(-n2c(=S)[nH]c3nc4c(cc3c2=O)COC(C)(C)C4)c1	-11.5
Cc1ccc(S(=O)(=O)N2CCN=C2SCc2ccc(Cl)c(Cl)c2)cc1	14.6
Cc1cc(N2CCN(C)CC2)nc2ccc(NC(=O)c3ccccc3F)cc12	17.6
CCCCC(=O)N/C(N)=N/c1nc2ccccc2o1	6.7
CCOc1ccc(NC(=O)CN2CCC(n3cnc4cc(F)ccc43)CC2)cc1	-10.0
O=C(c1cc2ccccc2c(=O)o1)N1CCCC1	10.6
O=C(O)c1cnn2cc(-c3[nH]ncc3[N+](=O)[O-])cnc12	18.6
Fc1ccc(C2c3cccn3CCN2C(=S)Nc2cccc(F)c2)cc1 (stereo not drawn)	11.8
CCOC(=O)c1c(NC(=O)CC2Sc3ccc(C(F)(F)F)cc3NC2=O)sc(C)c1C (stereo not drawn)	15.0
COc1cc(O)c(C(CC(=O)N2CCCC(C)C2)c2ccc3c(c2)OCO3)c(OC)c1 (stereo not drawn)	18.0
Cc1nn(-c2ccccn2)c2c1C(=O)C(Br)CC2 (stereo not drawn)	11.8
CC(=O)Nc1ccc(S(=O)(=O)N2CCCCC2C(=O)O)cc1 (stereo not drawn)	12.1
COc1cc(S(=O)(=O)Nc2ccc(C)cc2)ccc1N=Cc1c(C)[nH]n(-c2ccc(C)cc2)c1=O	19.1
Cc1nnsc1-c1c(C(=O)O)c(C)nn1-c1ccc(OC(F)(F)F)cc1	8.4
O=c1[nH]cn[nH]1	17.0
COc1ccc(NC(=O)C(NC(=O)Cc2cccs2)c2ccc(C)cc2)cc1 (stereo not drawn)	19.7
COc1cc(/C=N/N2C(=O)C3C4c5ccccc5C(c5ccccc54)C3C2=O)ccc1O (stereo not drawn)	13.6
O=C(O)c1csc(-c2ccccc2)n1	19.8
O=S(=O)(NC1CCCC1)c1ccccc1Br	15.2
CCOc1cc(CN2CCCC(C(=O)c3cccc(C(F)(F)F)c3)C2)ccc1O (stereo not drawn)	9.8
COc1ccc(/C=N\NS(=O)(=O)c2ccc(Cl)cc2)cc1COc1ccccc1[N+](=O)[O-]	7.4
N#C/C(=C\c1ccc(F)cc1F)S(=O)(=O)c1ccccn1	-0.4
COc1c(Cl)cc(Cl)cc1C(=O)Nc1ccc(NC(C)=O)cc1	6.1
Cc1ccccc1-c1nc(-c2ccccn2)no1	-1.1
COc1ccc(N(CC(=O)N2CCN(c3ccc(Cl)cc3)CC2)S(=O)(=O)c2c(C)n[nH]c2C)cc1	8.2
Cc1nnc(SCC2=C(C(=O)O)N3C(=O)C(NC(=O)C(C)n4nc(C(F)(F)F)cc4C)C3SC2)s1 (stereo not drawn)	8.4
C=CCSc1nnc(COc2ccc(=O)n(-c3ccccc3)n2)n1CC	15.7
COc1ccc(C(=O)C[n+]2ccc(N)c(C)c2C)cc1	-7.5
CCOC(=O)C(NC(=O)c1ccccc1F)(Nc1cc(C)on1)C(F)(F)F (stereo not drawn)	-0.2
CC1CCc2[nH]c3ccc(C(=O)NCCCOC(C)C)cc3c2C1 (stereo not drawn)	11.2
Cc1ccccc1OCC(O)Cn1c(N2CCN(c3ccccc3)CC2)nc2c1c(=O)[nH]c(=O)n2C (stereo not drawn)	2.1
Cc1ccc(NC(=O)CCNS(=O)(=O)c2cc(Br)cnc2N)cc1Cl	24.1
Cc1ccc(S(N)(=O)=O)c(C)c1-n1cnnn1	13.7
COc1ccccc1-n1cc(CN2CCCC(CO)(Cc3cccc(Cl)c3)C2)cn1 (stereo not drawn)	14.1
CCCC(=O)NCCc1nc2cc([N+](=O)[O-])ccc2n1C	1.6
Cc1cc(C)nc(SCC(=O)Nc2ccnc3ccccc23)n1	20.1
COc1ccc(OCC(Cn2cnc3ccccc32)OC(C)=O)cc1 (stereo not drawn)	27.5
NC(=O)C1CC(=O)N(c2ccc(OCc3c(Cl)cccc3Cl)cc2)C1 (stereo not drawn)	14.7
O=C(NC(=S)Nc1ccc(CN2CCOCC2)cc1)c1ccc(-c2ccc(Br)cc2)o1	24.9
COc1cccc(NC(=S)Nc2cc(C(=O)O)ccc2N2CC3CC(C2)c2cccc(=O)n2C3)c1 (stereo not drawn)	9.3
O=C(N/N=C/c1ccco1)C(O)c1ccccc1 (stereo not drawn)	11.8
COC(=O)C1C(=O)c2c(C)noc2CC1(C)C (stereo not drawn)	4.6
CC(=O)NCCC(=O)N1CCCC(CNC(=O)c2ccc(-c3ccccc3)cc2)C1 (stereo not drawn)	23.4
Cc1ccc(NC(=S)NCc2ccc3c(c2)OCO3)cc1	10.5
C=CCc1ccc(OCCOCCOc2cccc3cccnc23)c(OC)c1	5.0

# Additional compounds follow.
smiles	Calb biofilm kill
CCOc1ccc2nc3sc(C(=O)N4CCOCC4)c(N)c3cc2c1	11.8
CCN(CC)C(=O)CCCc1c[nH]c2ccccc12	8.3
CC(C)n1cc(CN2CCCC(CO)(Cc3cccc(Cl)c3)C2)cn1 (stereo not drawn)	4.9
Oc1oc(-c2ccccc2)nc1/C=N/c1ccccn1	-8.4
COc1ncccc1C(=O)N1CCCC(C(=O)c2cccc(OC(C)C)c2)C1 (stereo not drawn)	13.7
C=CCn1c(CCC)nc2ccccc21	10.6
COC(=O)c1c(NC(=O)C2COc3ccccc3O2)sc2c1CCN(C(C)=O)C2 (stereo not drawn)	19.5
CCCCn1c(NCc2ccc(N(C)C)cc2)nc2ccccc21	2.6
Nc1nnc(-c2ccccc2[N+](=O)[O-])o1	17.7
CCOC(=O)c1ccc(NC(=O)NCc2ccccc2OC)cc1	19.7
CCn1c(=O)cc(SCC(=O)Nc2ccc(C)cn2)c2ccccc21	-3.7

# Some of the compounds tested; count on the stated rates, not on these rows.
